Screens (PubChem BioAssay)
Rango dissoc inh – inhibition of RanGTP-driven Rango-importin beta dissociation; Biochemical FRET Rango-importin beta, RanGTP-induced dissociation; Potency, µM (highest dose often 46.1 µM), for the others: at the highest dose activity change, negative = inhibition; 0.071% of 340,000 active; AID 540253; active means falling FRET ratio curve, often poorly fitted, with flat reads before Ran was added; inconclusive means other falling curves, or compound fluorescence or quenching; inactive means flat or rising ratio curve;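 also: potency is read from the fitted curve at half-maximal effect; % of control where 0% means no effect; nearly all actives have a fitted effect of over 45% in size; -100% = wells without RanGTP and RCC1; the record marks most hits as doubtful in a second field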
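Recombinant Rango FRET biosensor (EYFP–snurportin 1 IBB–cerulean CFP10) at 0.1 uM premixed with 0.25 uM importin beta in PBS, 1 mM DTT, 0.02% Tween-20, 0.1% BSA. Compound added 5 min; RanGTP-RCC1 (0.6 uM Ran, 2 mM GTP, 0.2 uM RCC1) then triggers release, read at 45 min.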
Rango-impB inh – prevents formation of the Rango-importin beta complex; Rango CFP/YFP FRET sensor + importin beta, 45 min; Potency, µM (highest dose often 92.2 µM), inactives show at the top dose inhibition of complex formation; 0.031% of 340,000 active; active = rising FRET ratio curve, often small or poorly fitted; inconclusive = mostly compound fluorescence or quenching in the first reads; inactive = flat curves in all reads;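 also: potency is read from the fitted curve at half-maximal effect; 0% = DMSO wells and 100% = buffer wells lacking importin beta; nearly all actives have a fitted effect of over 15% in size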
Target sequence (Q14974 whole entry, looked up): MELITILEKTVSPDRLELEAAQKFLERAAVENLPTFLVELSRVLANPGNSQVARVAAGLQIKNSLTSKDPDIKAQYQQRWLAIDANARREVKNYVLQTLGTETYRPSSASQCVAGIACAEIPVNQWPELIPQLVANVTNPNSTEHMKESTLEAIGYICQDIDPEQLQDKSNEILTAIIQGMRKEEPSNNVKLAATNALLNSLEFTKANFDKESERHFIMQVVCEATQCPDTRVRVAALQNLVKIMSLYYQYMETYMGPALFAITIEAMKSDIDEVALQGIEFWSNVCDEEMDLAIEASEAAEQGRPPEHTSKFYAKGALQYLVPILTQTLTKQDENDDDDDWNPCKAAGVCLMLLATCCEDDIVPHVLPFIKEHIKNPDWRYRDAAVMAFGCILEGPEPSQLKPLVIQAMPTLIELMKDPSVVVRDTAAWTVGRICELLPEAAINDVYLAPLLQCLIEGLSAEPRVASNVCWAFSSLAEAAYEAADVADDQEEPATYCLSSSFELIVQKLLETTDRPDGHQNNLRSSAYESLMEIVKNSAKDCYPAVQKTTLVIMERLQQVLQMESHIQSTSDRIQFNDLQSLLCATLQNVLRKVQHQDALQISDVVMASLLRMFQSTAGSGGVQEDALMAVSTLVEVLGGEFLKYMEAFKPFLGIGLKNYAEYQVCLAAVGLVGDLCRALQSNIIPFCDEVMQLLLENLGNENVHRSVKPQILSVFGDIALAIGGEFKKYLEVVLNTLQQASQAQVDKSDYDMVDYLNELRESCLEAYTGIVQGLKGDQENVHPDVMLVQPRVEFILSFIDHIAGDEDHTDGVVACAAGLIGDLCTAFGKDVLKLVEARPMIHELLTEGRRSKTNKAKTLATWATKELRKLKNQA
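FRET biosensor Rango (snurportin 1 IBB between N-terminal EYFP and C-terminal Cerulean), 50 nM in PBS/1 mM DTT/0.02% Tween-20/0.1% BSA, preincubated 5 min RT with compound; 0.125 microM importin beta added, 45 min RT, CFP/YFP FRET ratio read.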
GLA inh pH 4.5 – alpha-galactosidase A (human) inhibition, pH 4.5 | P06280 | purified enzyme, 4-MU-alpha-Gal fluorescence, pH 4.5 | activity change, negative = inhibition, % at 105 µM | 230,000 tested, under 10 active | AID 1467; inconclusive = small, poorly fitted or top-dose-only inhibition, or a rising curve; inactive = flat fitted curve, though single readings scatter; no compound was filed as active;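 also: 0% = full activity with enzyme and -100% = basal without enzyme; dose as in the result columns while the protocol names 77 µM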
miR-21 FLuc – miR-21 reporter, rising signal | HeLa miR-21 FLuc reporter, luciferase, 48 h | Potency, µM (doses to about 38.3 µM), for inactives: top-dose reporter change, positive = more light | 340,000 tested, under 10 active | AID 2288; active = well fitted rising curve with a large enough effect; inconclusive = small, poorly fitted or top-dose-only effect; inactive = no such curve, though single readings can be large or run the other way;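 also: % of control where 0% means no effect; miR-21 action dims this reporter so a rising signal means less miR-21 action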
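Luminescence from a firefly luciferase reporter carrying a miR-21 binding site downstream, stably expressed under a CMV promoter in HeLa cells that make miR-21 endogenously, reports miRNA modulation after 48 h compound exposure up to approximately 40uM final.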
Active calls of the source: *; ? = inconclusive; / = no result given; & = joins results of further samples; [ ] = remark or other dose.

Rango dissoc inh	Rango-impB inh	GLA inh pH 4.5	miR-21 FLuc	Compound
9%	-0.4%	1	4%	CC1CCCCN1C(=O)Nc1cccc(C(F)(F)F)c1 (stereo not given)
12%	-2.4%	-12	0%	Cc1ccc(N2C(=O)CN(Cc3cccs3)C2=S)cc1C
1%	0.1%	1	-7%	O=C(O)c1ccc(N2C(=O)C3ON(c4ccccc4)C(c4ccccc4F)C3C2=O)cc1 (stereo not given)
3%	3.6%	2	3%	Cc1cccc(N2C(N)=NC(N)=NC23CCCCC3)c1
13%	1.3%	1	-8%	CCCCC(CCC(=O)Nc1ccc(C(=O)OC)cc1)C(=O)O (stereo not given)
3%	-2.5%	-2	-2%	O=C(Cn1nnc(-c2ccncc2)n1)NCCc1ccccc1
-6%	-4.8%	5	-6%	S=c1[nH]nc(C2CCCCC2)n1/N=C/c1cccs1
-19%	1.6%	-7	-8%	O=S(=O)(c1ccc(NC(=S)NN=C(Cc2ccccc2)Cc2ccccc2)cc1)N1CCOCC1
-14%	-4.3%	-4	/	N=C(N)c1ccc(N)cc1
19%	12%	/	/	Cc1c(NC(=O)COC(=O)c2ccc(O)cc2)c(=O)n(-c2ccccc2)n1C
1%	1.6%	7	0%	CCC(=O)NNc1ncnc2c1cnn2C
-10%	0.9%	-6	-14%	O=[N+]([O-])c1ccc(N=Nc2ccc(O)cc2O)cc1

Rango dissoc inh	Rango-impB inh	GLA inh pH 4.5	miR-21 FLuc	Compound
0%	-0.2%	/	-21%	CC(=O)N/N=C/c1ccccc1OCCOc1cccc(C)c1
-10%	-2.5%	/	/	O=C(NCC(c1ccco1)N1CCCC1)c1ccc(S(=O)(=O)Nc2ccccc2Cl)cc1 (stereo not given)
-8%	6.2%	4	1%	O=C(O)COc1ccc(F)cc1Br
23%	3.9%	/	/	COc1ccc(CNC(=O)Cn2cnc3c(NCc4ccccc4)ncnc32)cc1
0%	-1.5%	-14	1%	CCC(C)[C@H](NC(=O)NCc1cccs1)C(=O)OC (stereo not given in full)
21%	-2.5%	4	8%	CCOC(=O)C1CCN(C(=O)COc2ccc(Br)cc2C)CC1
1%	0.0%	/	0%	Cc1ccc(N2CC(C(=O)NC(C)CCc3ccccc3)CC2=O)cc1 (stereo not given)
-4%	-1.0%	-16	18%	COc1ccc(NC(=O)C2CCN(c3nc(C)nc4c3CCC4)CC2)cc1
-9%	-1.3%	/	/	COc1cc(NC(=O)Cn2cnc3c(SC)nc(N)nc32)cc(OC)c1OC
-16%	0.8%	2	-8%	Cc1cccc2nc(CSc3nncn3-c3ccccc3)cn12
-5%	2.2%	/	/	CN(C)S(=O)(=O)c1ccc(C(=O)Nc2ccc3nc(N4CCOCC4)sc3c2)cc1
-14%	2.5%	2	-13%	C/C(=N/Nc1ncc(C(F)(F)F)cc1Cl)c1ccncc1

Rango dissoc inh	Rango-impB inh	GLA inh pH 4.5	miR-21 FLuc	Compound
-13%	-1.3%	/	-14%	COc1ccc(Br)cc1C(=O)NC(=S)Nc1ccc2[nH]c(=O)[nH]c2c1
-9%	2.5%	/	/	C=CCN(c1ccccc1)S(=O)(=O)c1cccc(C(=O)Nc2cccc(C)n2)c1
0%	-3.0%	1	-20%	COC(=O)c1sccc1NC(=O)CCC1CCCC1
-10%	3.5%	-1	-2%	O=C(CN(Cc1ccccc1)S(=O)(=O)c1ccccc1)N1CCOCC1
11%	-10%	2	-1%	CS(=O)(=O)N(CC(=O)NCc1ccco1)c1cc(C(F)(F)F)ccc1Cl
-4%	0.0%	?	0%	Cc1ccc(C2(c3ccc(C)cc3)NC(=O)N(Cc3c(C)noc3C)C2=O)cc1
2%	4.1%	/	-19%	Cc1c(OC(C)C(=O)NCC2CCC(C(=O)O)CC2)ccc2c(-c3ccccc3)cc(=O)oc12 (stereo not given)
8%	-0.4%	-8	-9%	Cc1cc(N2C(=O)C3CC=CCC3C2=O)cc(C)c1Br (stereo not given)
-3%	1.5%	-9	27%	COc1cc(/C=C2\N=C(c3ccccc3)NNC2=O)cc(OC)c1OC
-5%	-1.0%	7	18%	CCn1cc(C(=O)NCc2cccnc2)c(=O)c2cc(F)c(N3CCN(C(=O)c4ccco4)CC3)cc21
3%	0.7%	5[21.1 µM]	6%	COc1ccc(S(=O)(=O)N(C(=O)c2ccncc2)c2ccc(OC(=O)c3ccncc3)cc2)cc1
?	-3.5%	/	22%	COC(=O)CC1COc2ccccc2N1S(=O)(=O)c1ccc(OC)cc1 (stereo not given)

Rango dissoc inh	Rango-impB inh	GLA inh pH 4.5	miR-21 FLuc	Compound
0%	0.5%	-3	-46%	Cc1cccn2c(=O)c(/C=N/O)c(NCc3ccccc3)nc12
-25%	1.0%	/	/	O=C(C=Cc1ccccc1)N1CCCCC1
-10%	-1.0%	-1	-15%	COc1cc(/C(C)=N\NC(=O)CSc2nc3ccccc3n2C)ccc1O
-20%	-0.8%	/	-6%	Cc1cc(C)cc(C(=O)NC2CC(C)(C)NC(C)(C)C2)c1
0%	0.1%	2	-3%	NC(=O)Cn1c(=O)n(CCC(=O)NCCSCc2ccccc2)c(=O)c2ccccc21
24%	-0.5%	/	/	O=C(O)C1CCCCN1C(=O)c1ccc(S(=O)(=O)N2CCCCCC2)cc1 (stereo not given)
3%	0.0%	7	-6%	NC(=O)Cn1cc(C(=O)c2cccs2)c2ccccc21
?	-7.1%	12	2%	O=C(CCN1C(=O)c2ccccc2C1=O)C1=NN[C@@H]2C(=O)N(c3ccc(F)cc3)C(=O)[C@H]12
-11%	-0.7%	/	4%	Cc1csc(NC(=O)NCC2CCCC(CNC(=O)Nc3nc(C)cs3)C2)n1 (stereo not given)
-2%	2.2%	/	/	Cc1ccsc1C(=O)NNC(=O)c1cccc(S(=O)(=O)N2CCCC2)c1
-15%	-2.1%	/	/	Cc1ccc(CNC(=O)Cn2cnc3c(NCc4ccccc4)ncnc32)o1
1%	3.0%	/	-3%	Cc1cc(C)cc(OCC(O)CN2CC(C)OC(C)C2)c1 (stereo not given)

Rango dissoc inh	Rango-impB inh	GLA inh pH 4.5	miR-21 FLuc	Compound
20%	0.5%	3	-1%	O=c1nc2ccccc2c2n1CC(CN1CCN(c3ccc(F)cc3)CC1)N2 (stereo not given)
6%	0.2%	7	-3%	CCCNC(=O)c1cccc(Br)c1
-4%	-0.8%	7	1%	CCCCCCCCCc1nc2sc3c(c2c(=O)n1NC(=O)c1ccc([N+](=O)[O-])cc1)CC(C)(C)OC3
9%	-5.6%	-5	0%	COc1cc(NC(=O)CSc2nnc3c(n2)[nH]c2ccc(S(=O)(=O)NC(C)C)cc23)cc(OC)c1OC
-6%	-0.8%	7	-20%	CC(Oc1ccccc1)c1ccnc2nc(N3CCOCC3)nn12 (stereo not given)
7%	0.0%	/	-15%	Cn1c2ccccc2c2cc(/C=N/NC(=O)c3cc(O)cc(O)c3)ccc21
17%	-4.8%	-7	9%	COc1ccc(-c2n[nH]c(C)c2-c2ccc(Cl)cc2)c(O)c1
?	?	?	-7%	CN(C)CCCn1c(N)c(C#N)c2nc3ccccc3nc21
-10%	-1.9%	0	2%	O=C1N(Cc2cccnc2)C[C@@H]2C[C@@H](c3cccc(Oc4ccccc4)c3)N3CCC[C@@]123
-1%	0.0%	-21	-5%	CN1CCN(c2nc(-c3ccccc3)nc(-c3ccc(F)cc3)c2C#N)CC1
?	?	-9	-67%	Cc1ccc(N=Nc2c(O)[nH]c3ccc(F)cc23)cc1
-10%	1.8%	/	-1%	CCOc1ccc(-c2c(C(=O)N/N=C/c3ccc(C)o3)nnn2-c2nonc2N)cc1

Rango dissoc inh	Rango-impB inh	GLA inh pH 4.5	miR-21 FLuc	Compound
-8%	1.3%	-7	-3%	C=C(C)C1CC=C(C)/C(=N/NC(=O)COc2ccccc2Cl)C1 (stereo not given)
12%	-0.5%	9	-10%	CCOC(=O)/C=C1\CC(=O)Nc2cc(C)c(C)cc2N1
-3%	-0.4%	/	2%	c1cc(-c2ccncc2)ccn1
0%	0.5%	/	-19%	O=C(Nc1ccccc1Cl)c1ccc2ccccc2c1
2%	3.4%	5	0%	CN(CC(=O)NC1CCN(Cc2ccccc2)CC1)S(=O)(=O)c1ccc2c(c1)c(=O)n(C)c(=O)n2C
26%	-1.0%	/	-22%	O=C1c2cccc3cccc(c23)C(=O)N1c1ccccc1Cl
14%	4.7%	/	/	CC(=O)Nc1ccc(NC(=O)COC(=O)c2ccccc2SCC(=O)N2CCCC2)cc1
-3%	1.4%	/	/	O=C(Cc1cccc(NC(=O)C2CCN(C(=O)C3CCCCC3)CC2)c1)Nc1cccc(C(=O)N2CCCCC2)c1
13%	-2.0%	-4	-3%	O=C(COC(=O)c1cccc(C(F)(F)F)c1)NCc1ccc(Cl)cc1
18%	2.1%	-1	-13%	O=Cc1cnc(N2CCN(Cc3ccccc3)CC2)s1
-7%	-2.1%	/	1%	Cn1c(=O)c(C(=O)NNC(=O)c2ccc(Br)cc2)c(O)c2ccccc21
1%	0.6%	-6	-1%	CC(C)COc1nc2ccccc2c(=O)n1OCC(=O)O

Rango dissoc inh	Rango-impB inh	GLA inh pH 4.5	miR-21 FLuc	Compound
-12%	-4.1%	-5	-1%	CCCc1[nH]nc2c1C(c1c(C)nn(-c3ccccc3)c1Cl)C(C#N)=C(N)O2 (stereo not given)
1%	6.1%	-1	4%	O=C1NCC(NC(=O)C(F)(F)F)c2cc3c(cc21)OCO3 (stereo not given)
-4%	-3.8%	-6	-111%	C=CCN=c1scc(C)n1/N=C/c1ccc(O)c(O)c1
18%	3.5%	5	-1%	CC1Cc2ccccc2N1c1ncnc2c1nnn2Cc1ccccc1Cl (stereo not given)
5%	-1.4%	-4	1%	CC(C)NC(=O)COC(=O)c1ccccc1C(=O)c1ccccc1
-10%	2.7%	3	-34%	Cc1ccc(C2=NNC(C(O)C(O)C(O)C(C)O)S2)cc1 (stereo not given)
0%	0.8%	-4	13%	CC(CCc1ccccc1)NC(=O)CNC(=S)N(Cc1cccs1)C1CCCC1 (stereo not given)
4%	3.6%	-4	-13%	Cc1nnc(SCC(=O)NCc2ccco2)n1-c1ccc(F)cc1
1%	0.7%	-4	-5%	CN1/C(=C/C=C(C#N)C#N)C=Cc2ccccc21
?	?	-1	5%	CCN1/C(=N\N)c2cccc3cccc1c23
6%	-3.7%	1	-3%	O=C(OCc1c(Cl)cccc1Cl)c1cccnc1Cl
0%	0.2%	/	/	Cc1noc(C)c1NC(=O)N(C)C[C@H]1Oc2c(NS(=O)(=O)c3cccs3)cccc2C(=O)N([C@H](C)CO)C[C@@H]1C

Rango dissoc inh	Rango-impB inh	GLA inh pH 4.5	miR-21 FLuc	Compound
24%	2.3%	4	-2%	COc1ccc(NC(=O)C2CSC(C)(C)N2C=O)cc1 (stereo not given)
1%	3.2%	1	-2%	CC(O)C(NS(=O)(=O)c1ccc(Cl)cc1)C(=O)OCC(=O)Nc1cccnc1Cl (stereo not given)
8%	1.1%	/	-2%	O=C(COc1ccc(Cl)cc1)NC(=S)Nc1ccccc1N1CCOCC1
-3%	-0.2%	/	1%	Cc1cc(C)c2c(=O)cc(C(=O)NCc3ccccc3)oc2c1
-5%	4.3%	4	-12%	C=CCNC(=S)NNC(=O)COc1ccc(Br)cc1
10%	-1.2%	-11	1%&0%	Cn1c(=O)oc2cc(S(=O)(=O)N3CCC(C(=O)NCc4ccc(F)cc4)CC3)ccc21

These rows are one share of the data; rates above refer to the full screens.
